# RanGTP-Imp inh: disruptors of Ran-importin-beta complex formation – biochemical, FRET, CFP-Ran, YFP-importin-beta, homogeneous, primary screen | cell-free CFP-Ran/YFP-importin-beta FRET ratio | inhibition, % (concentration not given with the values) | hit rate 1.1% among 300,000 | AID 2216;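 active means most replicates above 15%; inconclusive means exactly half above 15%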;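 further: 0% = DMSO wells and 100% = Ran loaded with GDP instead of GTP; wells of about 40 µL received 100 nL stock; the first replicate is given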
# B2AR ag: human beta-2 adrenergic receptor agonism by FAP; P07550; hit rate 0.43% among 340,000; Am2.2-beta2AR cells, FAP receptor internalization, flow cytometry; reference of the scale not given here; response, % (no concentration beside the values);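 active means response above a set limit, near 3 SD of response in nonfluorescent compounds, cut at about 42% in these data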;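 further: stock transfer was 100 nL into about 11 µL; a reference agonist was the positive control; negative values mostly stem from fluorescent compounds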
# Beta apoptosis: beta cell apoptosis inhibition; INS-1E cytokine-induced death, ATP luminescence, 48 h; percent of positive-control rescue, neutral wells zero; protection from apoptosis, % (concentration not given with the values); hit rate 0.8% among 300,000;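 active means all replicates at 75% or more, or half of them and the mean; inconclusive means half reach 75% but not the mean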;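 further: 0% = cytokine-treated negative control wells and 100% = positive control rescue; higher means more ATP so stronger rescue from cytokine killing; wells of about 40 µL received 100 nL stock; the first replicate is given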
# A1 inh: inhibitors of the anti-apoptotic protein A1, read as caspase activation. MEF A1-2A-BIM cells, Caspase-Glo 3/7 luminescence, 3 h; percent of clofoctol response, vehicle zero. caspase activation, % (no concentration beside the values). hit rate 0.066% among 330,000. AID 2462;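 active means over half of replicate activation scores above 10%, or exactly half above 10 with the replicate mean above 10; inconclusive means replicate mean below 10 yet half the replicates above 10; inactive means over half of replicates below 10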;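 further: wells of about 30 µL received 50 nL stock; many hits fall short of the cut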
# UCH37 inh: inhibitors of human deubiquitinating enzyme UCH37 | Q9Y5K5 | purified proteasome/UCH37, Ub-AMC cleavage fluorescence | inhibition, % (test concentration not listed) | hit rate 0.33% among 330,000;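 active means mean of two replicates above 20%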;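 further: 0% = compound-free wells with enzyme and 100% = wells lacking proteasome; stock transfer was 100 nL into about 20 µL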
#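 Assay system: Proteasome-bound UCH37. Buffer or medium: pH 7.4 Tris-HCl (50 mM) with ovalbumin, ATP-MgCl2, DTT. Incubation: 30 min preincubation with enzyme, 25 min cleavage at room temperature. Measured by: fluorescence, ex 355 nm, em 460 nm. Read-out basis: percent inhibition. Control set: wells without proteasome as full block, compound-free enzyme plus substrate as uninhibited.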
# T cruzi inh: T. cruzi replication inhibition | T. cruzi beta-gal in NIH3T3, luminescence, 90 h | inhibition, % (test concentration not listed) | hit rate 1.4% among 300,000 | AID 1885;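 active means mean inhibition across valid replicates above about 55%, limit read from the data; inconclusive means mean below that limit but half or more replicates reach it; inactive means mean below it, under half of replicates reach it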;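 further: signal also drops with host cell toxicity which is not excluded here; 0% = plate median of DMSO wells and 100% = zero luminescence signal; higher percent means less beta-gal luminescence so fewer parasites; stock transfer was 50 nL into about 50 µL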
# LANA-H2B inh: blocks KSHV LANA binding to histone H2A/H2B. Q9QR71. cell-free LANA-H2A/H2B peptide, fluorescence polarization. inhibition, % (test concentration not listed). hit rate 0.6% among 320,000. AID 2629; in the data active means inhibition mostly above about 10%, no sharp cut-off; inactive means mostly below about 6.7%;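 further: stock transfer was 7.5 nL into about 10 µL; 0% = median of vehicle wells and 100% = median of positive control wells; one replicate is shown; the record names a cut of 25% in any replicate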
# Target sequence (Q9QR71 whole entry, looked up): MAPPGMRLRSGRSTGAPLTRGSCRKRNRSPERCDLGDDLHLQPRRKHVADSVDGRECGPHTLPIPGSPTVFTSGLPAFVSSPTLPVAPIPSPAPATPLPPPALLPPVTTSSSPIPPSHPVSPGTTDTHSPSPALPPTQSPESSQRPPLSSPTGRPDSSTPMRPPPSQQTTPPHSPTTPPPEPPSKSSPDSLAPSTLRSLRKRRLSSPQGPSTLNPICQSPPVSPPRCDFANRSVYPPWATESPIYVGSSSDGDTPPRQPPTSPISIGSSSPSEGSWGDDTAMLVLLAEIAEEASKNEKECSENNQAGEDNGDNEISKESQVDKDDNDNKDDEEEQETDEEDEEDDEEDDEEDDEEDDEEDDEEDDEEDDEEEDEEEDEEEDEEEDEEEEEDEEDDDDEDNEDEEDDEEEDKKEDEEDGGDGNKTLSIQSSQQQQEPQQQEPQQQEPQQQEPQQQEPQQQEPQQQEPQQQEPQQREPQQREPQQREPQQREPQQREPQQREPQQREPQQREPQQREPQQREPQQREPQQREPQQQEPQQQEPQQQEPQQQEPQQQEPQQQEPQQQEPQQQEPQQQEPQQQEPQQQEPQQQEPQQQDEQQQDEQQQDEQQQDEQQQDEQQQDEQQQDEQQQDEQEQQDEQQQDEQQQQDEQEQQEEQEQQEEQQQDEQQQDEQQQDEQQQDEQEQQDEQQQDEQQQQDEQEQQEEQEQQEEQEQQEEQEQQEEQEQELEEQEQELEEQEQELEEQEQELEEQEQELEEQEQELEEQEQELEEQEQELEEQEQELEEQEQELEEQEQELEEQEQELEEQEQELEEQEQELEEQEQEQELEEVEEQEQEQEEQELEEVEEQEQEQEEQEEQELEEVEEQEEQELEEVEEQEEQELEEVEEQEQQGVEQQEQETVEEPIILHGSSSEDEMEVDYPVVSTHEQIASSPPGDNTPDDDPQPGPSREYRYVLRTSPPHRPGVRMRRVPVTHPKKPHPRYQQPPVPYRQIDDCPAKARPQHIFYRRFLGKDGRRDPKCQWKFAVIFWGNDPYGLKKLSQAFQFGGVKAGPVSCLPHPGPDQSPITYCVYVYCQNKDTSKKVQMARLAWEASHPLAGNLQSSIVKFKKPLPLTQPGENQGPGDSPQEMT
# Calb FLC: C. albicans growth modulation with fluconazole. C. albicans CaCi-2 (fluconazole-resistant clinical isolate) + fluconazole, Alamar Blue growth, 48 h. growth inhibition, % (concentration not given with the values). hit rate 0.57% among 300,000;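 active means most replicates above 75%; inconclusive means exactly half above 75%; inactive means most below 75%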;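 further: all wells also contain fluconazole at 8 µg/ml as a sub-toxic cotreatment; 0% = median of DMSO wells and 100% = median of geldanamycin control wells; wells of about 8 µL received 7.5 nL stock; the first replicate is given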
# An asterisk follows results filed as active; ? = inconclusive; . = not tested or not shown.
smiles,RanGTP-Imp inh,B2AR ag,Beta apoptosis,A1 inh,UCH37 inh,T cruzi inh,LANA-H2B inh,Calb FLC
CCN(CC)C(=O)c1[nH]cnc1C(=O)Nc1ccccc1,.,-2,-2,-0.1,3.0,.,5.6,.
Cc1noc(/C=C/NCc2cccnc2)c1S(=O)(=O)N(C)CC(=O)N1CCc2ccccc21,5.3,-4,-2,-0.1,5.3,30,-5.4,1
CCN1CCN(C(CNS(=O)(=O)c2ccc(F)cc2)c2cccnc2)CC1 (configuration not stated),7.1,-3,-12,-0.4,1.8,21,-1.5,-8
COc1ccccc1N1N=C(c2ccc([N+](=O)[O-])cc2)CC1c1ccccc1 (configuration not stated),-2.5,-13,15,0.4,.,32,-4.4,2
COc1ccc(-c2csc3nc(-c4ccccc4OC)oc(=O)c23)cc1,.,-3,9,0.4,-12,-65,1.0,.
COc1ccc(NC(=O)COC(=O)c2ccc3ccccc3n2)cc1,.,4,-6,2.9,4.8,.,9.2,.
CCCCN(C)CCNC(=O)c1cc2c(-c3cccc(OC)c3)nn(C)c2s1,-0.1,17,9,-0.5,-81,47,-4.9,0
O=c1[nH]c(=S)ccn1C1OC(CO)C(O)C1O (configuration not stated),-3.1,1,-5,-0.2,8.9,-1,0.0,5
O=C(c1cccs1)N1CCN=C1SCc1cccnc1,3.0,-9,.,1.4,1.9,11,3.7,1
COC(=O)c1nnn(-c2nc(N3CCOCC3)nc(N3CCOCC3)n2)c1C,-2.9,8,0,-0.1,2.7,-9,-0.3,-2

# Copied from the entries so far for reference:
smiles,RanGTP-Imp inh,B2AR ag,Beta apoptosis,A1 inh,UCH37 inh,T cruzi inh,LANA-H2B inh,Calb FLC
CCN(CC)C(=O)c1[nH]cnc1C(=O)Nc1ccccc1,.,-2,-2,-0.1,3.0,.,5.6,.
Cc1noc(/C=C/NCc2cccnc2)c1S(=O)(=O)N(C)CC(=O)N1CCc2ccccc21,5.3,-4,-2,-0.1,5.3,30,-5.4,1
CCN1CCN(C(CNS(=O)(=O)c2ccc(F)cc2)c2cccnc2)CC1 (configuration not stated),7.1,-3,-12,-0.4,1.8,21,-1.5,-8

# New compounds follow:
smiles,RanGTP-Imp inh,B2AR ag,Beta apoptosis,A1 inh,UCH37 inh,T cruzi inh,LANA-H2B inh,Calb FLC
Cc1nnc(SCC(=O)NCCc2ccccc2)s1,1.4,-1,-2,0.4,3.7,-5,1.2,-11
COC(=O)CNC(=O)Cc1c(F)cccc1Cl,0.2,-2,-3,0.4,3.4,-24,-3.8,3
CN(C)c1ccc(P(=O)(Nc2ccc([N+](=O)[O-])cc2)N2CCOCC2)c(NC(=O)c2cccs2)c1 (configuration not stated),-4.0,-10,5,0.9,1.1,34,-13,-5
COc1ccc(C(C(C(=O)c2cccs2)N2CCOCC2)N2CCOCC2)cc1OC (configuration not stated),?,-5,-5,1.2,6.4,-12,3.1,-6
COc1ccc2c(=O)cc(C(F)(F)C(F)(F)F)oc2c1,1.1,-3,.,0.1,-0.4,-8,-1.7,-8
O=C(c1ccc(N2CCOCC2)c([N+](=O)[O-])c1)N1CCCCC1,-1.3,-9,-8,0.2,4.5,-9,-1.8,8
CC(=O)Nc1c(C(=O)O)oc2ccc(Cl)cc12,-3.0,-4,-1,1.6,.,-19,2.8,-9
O=C(Nc1nc2ccccc2[nH]1)c1cccc(Br)c1,-2.7,-10,31,-4.6,3.2,-31,1.4,-3
Cc1cccc(NCc2ccccc2O)c1,-1.8,6,-3,0.0,-1.2,-21,2.8,-5
CN1CCN(CCCNCc2cn(CCC#N)c3ccccc23)CC1,-0.1,1,-1,0.9,0.0,-12,-1.4,3
COc1cc2c(cc1OC)CN(Cc1nc3ccsc3c(=O)[nH]1)CC2,5.7,3,-3,-0.8,-7.7,-7,2.0,-20
COc1ccc(C(C(=O)NC2CCCCC2)N(C(=O)CCl)c2ccc(Cl)cc2)cc1 (configuration not stated),6.7,-22,-18,0.0,-0.8,56*,1.6,2
CSc1ncccc1C(=O)Nc1nc2ccc(Oc3ccccc3)cc2s1,?,3,9,-6.7,-85,-7,-3.8,53
Cc1cnc(NC(=O)CN(C)S(=O)(=O)c2ccc(Cl)cc2)s1,-2.7,11,-1,-0.7,1.9,-2,-0.1,1
CCNS(=O)(=O)c1ccc(CCC(=O)O)cc1,-0.3,8,-3,0.3,4.0,2,-0.2,-5
CC1(C)CC(=O)c2sc(NC(=O)c3ccccc3)nc2C1,6.9,.,5,-8.6,5.3,-11,1.6,3
CCN1CCN(C(=O)N[C@@H](C(=O)N[C@@H]2C(=O)N3[C@@H]2SC(C)(C)[C@@H]3C(=O)O)c2ccccc2)C(=O)C1=O,0.2,.,6,-0.1,.,-15,2.9,.
CN(CC(=O)OCC(=O)NCC(F)(F)F)S(=O)(=O)c1ccc(Cl)cc1,0.6,5,.,0.1,2.5,-13,3.5,-2
O=S1(=O)N=C(N2CCN(c3ccc(F)cc3)CC2)c2ccccc21,-1.1,-7,1,0.4,0.4,1,-2.3,17
COc1cc(/C=C2/NC(=O)N(Cc3ccccc3F)C2=O)cc(OC)c1O,6.2,4,-4,0.9,1.0,10,2.1,?
CS(=O)(=O)N(CC(=O)N1CCCCCC1)c1ccccc1,-2.3,0,-5,1.1,0.6,3,-3.4,-4
O=C(C[C@@H]1C/C=C\C[C@@H](Cc2ccc(F)cc2)C(=O)OC[C@@H]2CCCN2C1=O)N[C@H](CO)Cc1ccccc1,.,-10,-3,-0.6,7.1,.,0.0,.
CC1CCN(CCCNC(=O)c2cc3sccc3n2C)CC1,2.9,1,-6,0.3,3.2,11,6.5,8
NC(=O)c1ccc(N2CCCCC2)c(N2C(=O)C3C4C=CC(C4)C3C2=O)c1 (configuration not stated),5.0,-4,-2,0.2,-0.4,-3,-5.1,-1
CCOC(=O)N1CCN(C(=O)c2ccc(Cn3c(=S)[nH]c4cc5c(cc4c3=O)OCO5)cc2)CC1,-2.8,7,-3,0.1,4.5,0,-4.0,5
CN(C)CCCNC(=O)c1cc2sc3ccccc3c2s1,5.5,41,-2,0.3,0.3,?,-2.5,0
Cc1ccccc1NS(=O)(=O)c1ccc(NC(=O)N2CCCCC2)cc1,1.8,-5,-1,0.4,1.4,-12,-1.0,1
CN1CCC(N(C)S(=O)(=O)c2ccc(NC(=O)COc3ccc([N+](=O)[O-])cc3)cc2)CC1,-2.6,-1,.,0.4,1.6,41,2.2,1
Cc1ccc(N/N=C/c2ccncc2)cc1,1.1,3,-1,1.0,.,15,-3.5,100*
O=C(COC(=O)c1ccc(Br)cc1)NCCC1=CCCCC1,-1.3,3,-4,0.0,2.8,-4,-3.5,3
CC(C)(C)OC(=O)NCCCC[C@H](NC(=O)c1nc[nH]c1C(=O)NC(c1ccccc1)c1ccccc1)C(=O)OC(C)(C)C,1.7,0,24,-0.7,3.0,56*,2.3,-2
CCN1CCCC1CNCc1cccc(OC)c1OCc1ccccc1 (configuration not stated),-0.2,-1,1,-0.2,5.5,7,-1.0,-6
Cc1ccc(-c2csc(NC(=S)NC(=O)/C=C/c3ccco3)n2)cc1,-0.9,9,5,0.3,7.6,-45,-2.1,2
O=C(Nc1ccc(Cl)cc1)Nc1nc(-c2ccccc2)cs1,3.4,0,6,1.1,.,14,1.5,-1
CCC(=O)N1CCc2cc(S(=O)(=O)NCCC(=O)N3CCN(c4ccccc4)CC3)ccc21,?,-15,1,-0.2,4.7,-3,7.5,-5
CC1(C)SC(=S)N(NC(=O)Nc2ccccc2)C1N(O)C(=O)Nc1cccc2ccccc12 (configuration not stated),-3.3,9,-2,-0.8,1.6,26,-4.3,9
COc1cc([N+](=O)[O-])ccc1NC(=O)CSc1nnc(C)c(C)n1,0.6,-1,0,-0.1,4.3,0,-1.9,-3
OCc1cccc(Nc2ncnc3sc4c(c23)CCCCC4)c1,-5.0,3,-1,-0.1,-0.2,12,2.2,-3
CCN(C(=O)COC(=O)CN(C)S(=O)(=O)c1ccc(NC(C)=O)cc1)C1CCS(=O)(=O)C1 (configuration not stated),?,-3,0,-0.3,0.1,2,0.3,3
COc1cc(CNn2nnnc2N)cc(Br)c1OCC(=O)NC(C)(C)C,1.9,2,-9,?,-0.8,-10,-6.0,-1
Cc1ccc(Cn2c(C(=O)O)cc3sccc32)cc1,3.0,-8,0,0.2,5.5,3,12,13
Cc1cc(C)cc(NC(=O)c2cc(=O)c3ccccc3o2)c1,1.1,3,-3,1.1,0.6,5,1.9,-6
COCC(=O)n1nc(NCc2ccc(OC)cc2)nc1NCc1ccc(OC)cc1,7.3,11,3,0.1,2.6,3,-0.5,-9
O=C(Nc1cc(C(F)(F)F)ccc1N1CCOCC1)c1cn2ccccc2n1,0.6,-1,-6,0.2,-88,8,1.8,-38
O=C(COC(=O)c1nn(CCO)c(=O)c2ccccc12)Nc1ccc(Cl)c(Cl)c1,.,18,-3,0.1,0.5,.,1.8,.
CC(=O)Nc1sc(N/N=C/c2ccccc2F)nc1-c1ccc(C)cc1,0.8,14,-5,1.0,.,-8,-5.8,-3
Fc1cccc(Cl)c1Cc1noc(/C=C/c2ccccc2)n1,2.5,-4,1,1.3,-0.2,3,1.5,7
CCN(CC)S(=O)(=O)c1cc(-c2nnc(-c3ccc(Br)cc3)o2)ccc1Br,5.1,1,-3,-0.5,1.0,48,5.9,23
O=C(Nc1ccc(F)c(Cl)c1)Nc1ccc(Cl)cn1,-4.1,-1,5,0.6,6.5,-5,-0.9,-15
COC(=O)c1sc2ncn(-n3c(C)ccc3C)c(=O)c2c1C,5.0,-5,-5,0.5,2.5,-8,-0.1,-34

# (further entries)
smiles,RanGTP-Imp inh,B2AR ag,Beta apoptosis,A1 inh,UCH37 inh,T cruzi inh,LANA-H2B inh,Calb FLC
CCCOP(=O)(OCCC)C(Nc1cccc(C(F)(F)F)c1)c1ccc(C)cc1 (configuration not stated),4.2,2,7,0.8,5.7,21,1.9,-14
O=C(NC(=S)N1CCCCCC1)c1ccc(Cl)cc1Cl,-2.3,-1,6,-0.5,6.0,-10,3.3,8
O=C(CSc1ncccn1)N1CCN(S(=O)(=O)c2ccccc2)CC1,3.9,-1,1,0.0,1.2,-2,2.5,-6
CCN(CC)S(=O)(=O)c1ccc(-c2nnc(SCC(N)=O)n2CC)cc1,-4.4,-4,-3,0.1,0.3,-11,-0.8,30
Cc1cc(C)c2cc(C(O)c3nnnn3Cc3ccccc3)c(=O)[nH]c2c1 (configuration not stated),-5.7,18,-1,0.9,-9.2,-8,2.5,10
Cc1ccc(-c2nnn(CC(=O)N(c3ccc(F)cc3)C(C(=O)NC(C)(C)C)c3ccco3)n2)o1 (configuration not stated),-0.1,-1,3,1.0,1.7,-8,-1.9,-2
O=C(Nc1ccc(S(=O)(=O)N2CCCCC2)cc1)c1cccnc1Cl,0.5,-3,2,0.1,2.7,-4,-2.5,-3

# Assay outcomes (PubChem BioAssay)
